# gsp ag – activates gsp, the McCune-Albright syndrome mutation. gsp mutant cells, cAMP HTRF, 30 min; control for the full effect not named in the record. hit rate 0.13% among 340,000. Potency, µM (doses to about 76.9 µM), for inactives: at the highest dose activation (cAMP increase), usual class: activators. AID 624287; active = well fitted activation curve with a large enough effect; inconclusive = small, poorly fitted or top-dose-only effect, or another doubt; inactive = no such curve, though single readings can be large or run the other way; cell line not stated here;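 note: phosphodiesterase inhibitor Ro 20-1724 added with compounds to block cAMP breakdown; potency is the fitted concentration of half-maximal effect; nearly all actives have a fitted effect of over 60% in size; about a fifth of the inactives were tested at one dose only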
#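 Cells in DMEM/10% FBS with G418 were pretreated with compounds in DMSO plus […] (300 uM stock) for 30 min at 37C. cAMP was measured by HTRF (cAMP-d2 plus anti-cAMP antibody-K) after 30 min at room temperature.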
# gsp antagonist – antagonists of gsp mutant (McCune-Albright syndrome) | hit rate 0.4% among 340,000 | AID 624288 | gsp-mutant cells, cAMP HTRF, 30 min; control for the full effect not named in the record | Potency, µM (highest dose often 76.9 µM), without a hit: at the highest dose activity change, negative = inhibition, hits mostly inhibitors; active = falling curve of any shape with a large fitted effect; inconclusive = falling curve, mostly with a smaller effect; inactive = flat or rising curve; cell line not stated here;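 note: intracellular cAMP measured with PDE inhibitor Ro 20-1724 present during compound exposure; potency is the fitted concentration of half-maximal effect; % is set by controls: 0 for no effect and ±100 for the full control effect; nearly all actives have a fitted effect of over 65% in size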
#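 G418-selected cells were plated in DMEM/10% FBS for 16-24 h at 37C, then treated with compounds plus the PDE inhibitor […] (300 uM solution added) for 30 min at 37C. Intracellular cAMP was measured by HTRF after 30 min lysis at room temperature.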
# TRPV1 potentiator – human TRPV1 potentiation. Q8NER1. TRPV1-expressing cells, Fluo-8 calcium influx, capsaicin EC20 potentiation; host cell line not named in the record; control for the full effect not named in the record. potentiation, % at 8.33 µM. hit rate 0.02% among 320,000. AID 540277; active means potentiation above 80%; inconclusive means 30% to 80%; inactive means below 30%; note: 0% is about no effect
# Target sequence (Q8NER1 whole entry, looked up): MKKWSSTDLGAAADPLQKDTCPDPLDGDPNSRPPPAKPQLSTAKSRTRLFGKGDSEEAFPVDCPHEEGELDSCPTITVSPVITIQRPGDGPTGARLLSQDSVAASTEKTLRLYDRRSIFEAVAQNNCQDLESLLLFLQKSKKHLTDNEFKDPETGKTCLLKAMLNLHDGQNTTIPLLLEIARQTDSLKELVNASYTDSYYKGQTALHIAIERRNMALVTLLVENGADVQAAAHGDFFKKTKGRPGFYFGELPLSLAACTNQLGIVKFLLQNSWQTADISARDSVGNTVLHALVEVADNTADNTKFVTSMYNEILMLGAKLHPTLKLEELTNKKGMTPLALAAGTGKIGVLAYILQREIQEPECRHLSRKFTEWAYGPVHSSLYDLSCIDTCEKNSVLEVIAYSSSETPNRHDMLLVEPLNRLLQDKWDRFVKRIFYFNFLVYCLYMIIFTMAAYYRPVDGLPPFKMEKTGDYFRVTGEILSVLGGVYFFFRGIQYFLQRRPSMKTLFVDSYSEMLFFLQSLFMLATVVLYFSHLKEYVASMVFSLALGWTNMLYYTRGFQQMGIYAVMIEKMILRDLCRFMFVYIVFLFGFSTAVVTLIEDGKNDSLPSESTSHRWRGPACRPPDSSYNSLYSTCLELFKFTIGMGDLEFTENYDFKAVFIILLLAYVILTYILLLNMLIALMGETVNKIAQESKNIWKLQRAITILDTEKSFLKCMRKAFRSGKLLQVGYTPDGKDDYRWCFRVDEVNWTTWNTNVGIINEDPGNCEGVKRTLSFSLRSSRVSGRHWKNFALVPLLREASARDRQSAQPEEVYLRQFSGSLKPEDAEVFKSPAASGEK
#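 Fluo-8 calcium influx in TRPV1-expressing cells, kinetic read (ex 480/em 520 nm). Compound added and read 3 min for agonist activity, followed by capsaicin at EC20 final and 2 min further read for enhancement.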
# Sfp inh – inhibitors of Bacillus subtilis Sfp phosphopantetheinyl transferase. Q9F4F7. Biochemical Sfp PPTase activity, qHTS. Potency, µM, inactives show max response, negative = inhibition, usual class: inhibitors. hit rate 3.5% among 310,000. AID 1490; active = well fitted inhibition curve with a large enough effect; inconclusive = small, poorly fitted or top-dose-only effect, or another doubt; inactive = no such curve, though single readings can be large or run the other way;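 note: the enzyme is Sfp with the accession as filed and its product quenches rhodamine fluorescence; potency is the fitted concentration of half-maximal effect; 0% = enzyme reaction without inhibitor and -100% = no enzyme wells; top concentration of the series not given in the record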
#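 Buffer: 50 mM Hepes-Na pH 7.6, 10 mM MgCl2, 0.01% Nonidet P-40, 0.01% BSA. Enzyme 15 nM, pre-exposed to compound 15 min; substrates then added and fluorescence change tracked over 30 min.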
# Menin-MLL FL inh – menin-MLL binding inhibition, fluorescein peptide | AID 1766 | FP activity change, % at 61.4 µM | Fluorescence polarization, fluorescein-MLL peptide displacement from menin | 290,000 tested, under 10 active; inconclusive = falling polarisation curve, or a change in total fluorescence; inactive = total fluorescence flat and polarisation flat or rising; no compound was filed as active; the % refers to the polarisation; negative = inhibition;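 note: % of control where 0% means no effect; inhibitors lower the polarisation; unlabelled MLL peptide was the positive control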
# ClpP mod – qHTS Assay for Activators of ClpP; AID 651965, 2013; Potency, µM (titrated, usually from 57.5 µM), inactives show top-dose activity change, negative = active; ATP-dependent Clp protease proteolytic subunit (Bacillus subtilis (strain 168)), P80244; purified B. subtilis ClpP, FRET peptide cleavage, 20 min; hit rate 1.9% among 340,000; active = well fitted falling curve with a large enough effect; inconclusive = small, poorly fitted or top-dose-only effect; inactive = no such curve, though single readings can be large or run the other way; note: potency is the fitted concentration of half-maximal effect; the source files actives as falling curves though it sought activators and does not explain the sign; nearly all actives have a fitted effect of over 65% in size; many hits overshoot -100%
# Target sequence (P80244 whole entry, looked up): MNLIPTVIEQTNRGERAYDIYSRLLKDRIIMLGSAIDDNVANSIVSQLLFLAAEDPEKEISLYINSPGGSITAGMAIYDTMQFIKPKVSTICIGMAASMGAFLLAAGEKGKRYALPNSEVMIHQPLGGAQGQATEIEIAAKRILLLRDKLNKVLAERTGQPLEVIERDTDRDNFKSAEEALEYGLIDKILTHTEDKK
#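 Purified B. subtilis ClpP, 10 microg/mL final in Tris/HCl pH8 with KCl, BSA, glycerol and Tween-20, cleaved an Abz/nitrotyrosine-quenched decapeptide. Fluorescence (ex 320, em 430) was read at 0 and 20 min at room temperature. Delta was normalized to 5.8 microM ADEP and DMSO/no-enzyme controls.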
# CtBP-E1A blk – CtBP/E1A binding inhibition; activity change, % (concentration not given with the values); AlphaScreen GST-E1A/His-CtBP binding, 1536-well; active compounds read low; control for the full effect not named in the record; hit rate 0.49% among 340,000; in the data active means activity change below about -65%; inconclusive means about -30% to -65%; inactive means above about -30%; note: % is set by controls: 0 for no effect and ±100 for the full control effect
#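 Homogeneous bead-based format: GST-tagged E1A captured on glutathione donor beads, His-tagged CtBP on nickel acceptor beads; compounds precede bead addition by 2 h at 37 °C.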
# Starred values were filed as active, the others as inactive; ? = inconclusive; . = no result given; & = joins results of further samples; [ ] = another dose, or the depositor's remark.
# The opening 4 records (preview)
SMILES,gsp ag,gsp antagonist,TRPV1 potentiator,Sfp inh,Menin-MLL FL inh,ClpP mod,CtBP-E1A blk
CC(=O)OC1CCC2(C)C(COc3ccc4ccc(=O)oc4c3)C(C)(O)CCC2C1(C)C (stereo not given),-55%[inhibitor],-20%,3,-6%,3.6,13%,0
CC(C)c1ccc(NC(=S)Nc2ccc3cn[nH]c3c2)cc1,-27%[15.4 µM],12%,-5,10%,5.3,.,1
CCOC(=O)c1cccc(NC(=O)C(NS(=O)(=O)c2ccc3c(c2)CCN3C(C)=O)C(C)C)c1 (stereo not given),-22%,4%,10,15%,4.6,-0.4%,4
COc1ccc(CN(C)C(=O)c2ccncc2)c(OC)c1,14%,17%,13,11%,.,-0.3%,12

# The listing, previewed entries included:
SMILES,gsp ag,gsp antagonist,TRPV1 potentiator,Sfp inh,Menin-MLL FL inh,ClpP mod,CtBP-E1A blk
CC(=O)OC1CCC2(C)C(COc3ccc4ccc(=O)oc4c3)C(C)(O)CCC2C1(C)C (stereo not given),-55%[inhibitor],-20%,3,-6%,3.6,13%,0
CC(C)c1ccc(NC(=S)Nc2ccc3cn[nH]c3c2)cc1,-27%[15.4 µM],12%,-5,10%,5.3,.,1
CCOC(=O)c1cccc(NC(=O)C(NS(=O)(=O)c2ccc3c(c2)CCN3C(C)=O)C(C)C)c1 (stereo not given),-22%,4%,10,15%,4.6,-0.4%,4
COc1ccc(CN(C)C(=O)c2ccncc2)c(OC)c1,14%,17%,13,11%,.,-0.3%,12
O=C(NN1C(=O)C2C3C=CC(C4CC34)C2C1=O)c1ccc(Br)cc1 (stereo not given),15%[15.4 µM],20%,-5,-12%,-0.1,.,-6
CC(=O)c1ccc(NC(=O)Nc2ccncc2)cc1,-33%[inhibitor],-4%,6,17%,3.8,-2.1%,-4
Cc1ccc(Cn2c(CCNc3nc(-c4ccc(C)cc4)cs3)nc3cc(C(=O)NCCCO)ccc32)cc1,?,-12%,.,.,.,-4.7%,-4
COC(=O)c1cccc(NC(=O)/C(=C\c2ccco2)NC(=O)c2ccco2)c1,3%,.,.,.,.,-2.1%,-5
CCc1cc(-c2n[nH]c(C)c2-c2nc3ccccc3s2)c(O)cc1OCC(=O)NN,27%[15.4 µM],-13%,5,14%,0.7,0.3%,9
CCc1ccccc1NNC(=O)c1cc(C)on1,0%,6%,21,2%,2.1,-7.5%,.
Cc1cc(Cl)cc(Br)c1OCCCNCC(C)O (stereo not given),-13%[15.4 µM],9%,8,11%,-1.9,.,3
CC(=O)Nc1ccc(S(C)(=O)=O)c(C)c1,-2%[15.4 µM],5%,-7,-7%,-1.6,-0.4%,-9
CCC1=[N+]([O-])C(C)(/C(C)=N\O)N(O)C1(C)C (stereo not given),26%,8%,-14,12%,-5.4,3.7%,0
Cc1ccc2c(c1)C(=O)CCN2,-16%,2%,7,3%,-13,-0.9%,2
COc1ccc(CSc2nncn2C)cc1F,2%,10%,-2,17%,-1.6,-2.7%,0
N/C(=N\OC(=O)Cc1ccc(Cl)cc1)c1ccncc1,-7%[15.4 µM],7%,-11,24%,-2.0,-4.1%,1
O=S(=O)(c1ccc(Cl)cc1)N1CCN(c2ncnc3sccc23)CC1,11%,-9%,.,.,.,-13%,-2
CN(Cc1ccccc1)C(=O)CC(=O)N(C)Cc1ccccc1,?,16%,-5,13%,-1.3,.,5
Cc1nn(CC(=O)Nc2cccc(Cl)c2)c(=O)c2cc(-c3ccccc3)nn12,1%,22%,1,17%,.,-0.1%,12
CCc1ccccc1NC(=O)NNS(=O)(=O)c1cc(C)ccc1C,-18%,3%,5,5%,0.4,-1.1%,4
CN(CCOc1ccc(Cl)cc1)c1ccc(S(=O)(=O)N2CCCCC2)cn1,10%,5%,1,15%,3.5,?,6
O=c1oc(-c2ccc(Br)o2)nc2ccccc12,6%,12%,-3,10%,0.2,?,-4
COC(=O)c1cn[nH]c1NC(=S)Nc1ccccc1C,42%,-34%,2,-8%,-1.9,-2.1%,4
CN1OC[C@@H]2CN(Cc3cc(Cl)cc(Cl)c3)[C@H](c3cccc(-c4ccccc4)c3)C[C@@H]21,.,-5%,.,.,.,-2.5%,0
Cc1cc2c(NCC(C)O)ncnc2s1 (stereo not given),13%[15.4 µM],2%,.,.,.,-1.1%,10
COc1ccc(C(=O)NC(=S)NC2CCCCC2)cc1,-3%,?,-12,2%,.,-0.9%,-28
Cc1ccc2nc(SCC(=O)Nc3cc(C)on3)[nH]c2c1,7%,10%,13,9%,0.2,-1.5%,-2
Cc1cc(C)nc(N2CCCC(C(=O)Nc3nnc(C(C)(C)C)s3)C2)n1 (stereo not given),?,5%,4,-1%,-0.5,-5.5%,.
N#C/C(=C\c1ccc(O)c(O)c1)C(=O)c1ccc(O)c(O)c1,.,-10%,-3,.,?,1.5%,-6
Cc1ccc(C)c(NC(=O)c2ccc(S(=O)(=O)N(C)CC3CCCO3)cc2)c1 (stereo not given),3%,-4%,.,.,.,3.0%,-6

# Sorted by the number under CtBP-E1A blk (largest number first): 5 of the compounds above.
Compound,CtBP-E1A blk
Cc1cc2c(NCC(C)O)ncnc2s1 (stereo not given),10
CN(CCOc1ccc(Cl)cc1)c1ccc(S(=O)(=O)N2CCCCC2)cn1,6
O=c1oc(-c2ccc(Br)o2)nc2ccccc12,-4
N#C/C(=C\c1ccc(O)c(O)c1)C(=O)c1ccc(O)c(O)c1,-6
COc1ccc(C(=O)NC(=S)NC2CCCCC2)cc1,-28

# (continued)
SMILES,gsp ag,gsp antagonist,TRPV1 potentiator,Sfp inh,Menin-MLL FL inh,ClpP mod,CtBP-E1A blk
Cc1ccc(C(NC(=O)N2CCCC2)C(Cl)Cl)cc1F (stereo not given),16%[15.4 µM],2%,-20,-27%,-0.4,.,2
CCOc1cc(CNCCO)cc(Br)c1OCc1ccc(Cl)cc1Cl,18%,6%,.,3%,-1.3,-1.6%,-5
COc1cc2ncnc(NCc3ccccc3Cl)c2cc1OC,-4%,-2%,6,0%,-2.7,-27%,-4
C=CCNc1ccc(N2C(=O)C3CCC(C)CC3C2=O)cc1[N+](=O)[O-] (stereo not given),.,.,?,0%,1.8,.,.
O=C(COc1ncnc2sccc12)N1CCN(C(=O)c2ccco2)CC1,-4%[15.4 µM],8%,0,0%,4.5,0.9%,-2
CC(C)c1ccc(NC(=O)COC(=O)/C=C/c2cccc(Br)c2)cc1,-5%,10%,-4,19%,3.3,-7.3%,1
O=C(NNC(=O)c1sccc1-n1cccc1)c1cccc(Cl)c1,-43%[inhibitor],-2%,-8,-3%,3.1,-0.5%,-8
CCOC(=O)COc1ccc(-c2nnc(-c3ccccc3)o2)cc1,9%,-21%,-16,-4%,0.1,?,-5
CCS(=O)(=O)c1ccc(N=Nc2ccc(O)c3ncccc23)c(OC)c1,-3%,-11%,12,-6%,6.1,.,-93*
COc1ccc(N2CCN(c3nc4c(C)cccn4c(=O)c3C=C(C#N)C#N)CC2)cc1,3%,4%,-23,5%,0.2,.,5
CCn1c(C)c(CCC(=O)O)c(=O)n2nc(-c3ccccc3OC)cc12,9%,-2%,-8,0%,2.7,?,2
O=c1c(-c2ccc(Br)cc2)[n+]([O-])c2ccccc2n1OCc1ccccc1,20%,-4%,-3,2%,-1.6,-3.0%,.
O=C(NCc1nc2ccccc2[nH]1)c1ccc(Cl)c(S(=O)(=O)N2CCCC2)c1,-19%,-8%,0,19%,0.2,-6.3%,-3
CC1=C(C(=O)Nc2ccccc2C(=O)N2CCCCC2)SCCO1,?,9%,19,8%,.,1.0%,-12
COCP(=O)(c1ccccc1)c1ccccc1,-35%[inhibitor],1%,?,9%,1.7,0.9%,7
O=C(c1ccccc1)N1CCN(S(=O)(=O)c2cccs2)CC1,?,10%,-2,8%,.,-2.2%,-3
CCc1ccc(NC(=O)c2sccc2-n2cccc2)cc1,3%,-20%,2,0%,0.6,-2.1%,-2
O=C(CNS(=O)(=O)c1ccc(F)cc1)Nc1ccccc1,10%,9%,4,4%,.,-3.4%,-12
Cc1nc2cc(C(=O)O)ccc2n1-c1ccc(F)cc1F,-8%,-2%[15.4 µM],?,13%,1.4,-0.8%,0
Cc1ccc(SCC(=O)NC2CCS(=O)(=O)C2)cc1C (stereo not given),-42%[inhibitor],12%,-4,.,.,-3.4%,-3
CC(/C=C/c1ccco1)=N/NC(=O)Cc1cccs1,-5%,21%,-3,-66%,17,-3.7%,0
CC(C)C[C@H]1CN=C(Nc2ccccc2)N1CCCCc1ccccc1,-38%[inhibitor],10%,-6,0%,2.2,0.8%,0
CCC(CO)NC(=O)c1ccc(-c2nn(C)c(=O)c3ccccc23)cc1 (stereo not given),16%,4%,11,11%,3.0,-2.9%,2
O=Cc1cc(CCC(=O)O)ccc1O,.,4%,-5,6%,-18,-4.7%,5
COc1ccccc1N(C(=O)c1ccco1)C(C(=O)NC1CCCC1)c1cccs1 (stereo not given),-5%[15.4 µM],5%,-2,10%,.,.,-20
Cc1c(O)ccc(C(=O)CN2CCN(c3ccc(F)cc3)CC2)c1O,8%,-9%,19,10%,-1.7,-9.7%,.
O=C(NCc1nnc(SCC(=O)N2CCCCCC2)o1)c1ccc(F)cc1,3%,-7%,8,10%,0.4,0.8%,0
COC(=O)C1=C(O)/C(=C\c2ccc(CNC(=O)C(=O)Nc3ccc(C)cc3)o2)N=C1C,-2%,-2%,?,13µM*,-1.5,-2.7%,0
CCc1nnc(NC(=O)CSc2nc(-c3ccccc3)cc(-c3ccc(F)cc3)c2C#N)s1,?,2%,23,8%,14,-1.9%,-6
CCCCC1=CC2=CC(=O)C(C)(OC(=O)CC)C(=O)C2=CN1c1ccc(OC)cc1 (stereo not given),.,-7%,25,3%&-4%,-4.2[11.7 µM],-2.0%,-21
O=C(Nc1cccc([N+](=O)[O-])c1)c1ccc2c(c1)C(=O)N(c1ccccn1)C2=O,23%,-13%,2,-16%,-3.9,.,-6
COC1OC(CO)C(O)C(O)C1O (stereo not given),.,-2%,19,17%,1.0,-0.8%,0

# Screens from PubChem BioAssay.
